Ab BasE inh – BasE siderophore biosynthesis inhibition | purified BasE, fluorescence polarization binding displacement | inhibition, % (concentration not given with the values) | 84,000 compounds, 0.1% hits | AID 485350;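 active = both replicates above 25% with normal brightness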;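 note: 0% = negative plate control signal and 100% = positive plate control signal; stock transfer was 100 nL into about 30 µL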
KSHV LANA nucl – LANA-nucleosome interaction inhibition. 51,000 compounds, 0.3% hits. z-score (concentration not given with the values). FITC-LANA1-23 / chicken nucleosome fluorescence polarization; active compounds read low;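 active = both repeat wells score below -2 in polarization z-score versus plate sample wells, excluding overly bright wells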;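 note: 100 nL library stock added to about 30 µL; numbers are from one replicate; some results filed as inactive read as strong as hits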
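Material: Purified chicken nucleosomes with FITC-labelled LANA N-terminal peptide (1-23) | Reagent: 50 nM FITC-LANA1-23 probe | Medium: TEN-BT buffer, pH 7.5 | Times: 10–45 min incubation at room temperature | Detection: Fluorescence polarization | Replication: Duplicates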
The depositor's hits bear a star; · = no result given; & = joins results of further samples.

SMILES	Ab BasE inh	KSHV LANA nucl
CCC(=O)N=C1SC2CS(=O)(=O)CC2N1CCc1ccccc1 (stereo not given)	0.6	-1.4
Nc1ccccc1Nc1c(N)c(=O)oc2ccccc12	2.1	·
FC(F)(F)c1cc(/C=C\c2noc(-c3ccc(CN4CCCC4)cc3)n2)cc(C(F)(F)F)c1	·	0.065
Cn1cnnc1Sc1cc(C#N)c(C#N)cc1Sc1nncn1C	-1.4	·
CCOC(=O)N1CCC(NC(=O)c2cnn3c(C(F)(F)F)cc(-c4ccccc4)nc23)CC1	-2.1	0.3
CCC(C)c1ccc(NC(=S)NC(=O)c2ccco2)cc1 (stereo not given)	1.6	·
CC(C)NS(=O)(=O)c1cccc(C(=O)O)c1	2.5	·
O=C(O)C1CCCN1C(=O)Nc1ccc(Br)cc1 (stereo not given)	1.4	-0.92
c1ccc(Nc2nc(CN3CCN(c4ncccn4)CC3)cs2)cc1	-5.7	·
Cc1onc(-c2ccccc2)c1C(=O)NC1CCOc2ccccc21 (stereo not given)	1.6	·
S=C(NC1CCCCC1)C(=S)NC1CCCCC1	4.2	·
CCOc1ccc(N2C(=O)c3ccccc3NC2(CC)CC)cc1	0.6	·
O=C1c2ccncc2C(=O)N1Cc1ccccc1	-5.0	1.6
Cc1nnc(NNC(=O)c2ccc(C#N)cc2)[nH]c1=O	1.3	·
FC(F)(F)C(F)(F)C(F)(F)c1nnc2ccc(N3CCOCC3)nn12	-0.7	0.3
CSc1ccc(-c2ccc(C(=O)O)c(Cl)n2)cc1	1.2	-0.07
CC(NCc1cn(Cc2ccccc2)nc1-c1cccnc1)c1ccc(-n2ccnc2)cc1 (stereo not given)	-2.0	·
Cc1cc(CO)cc(C)c1Br	-2.9	·
COc1ccc(-c2n[nH]c(C)c2-c2ccccc2)c(O)c1	5.9	-0.091
O=C(COc1ncnc2sccc12)c1ccc2c(c1)OCCO2	-5.1	·
C=CCSC1=C(C#N)C(c2ccccc2OC)C(C#N)C(=O)N1 (stereo not given)	0.1	0.36
Nn1c(Cc2cccc3ccccc23)nnc1SCC(=O)N1CCCC1=O	2.7	·
C[S+](C)c1ccccc1	-1.2	0.15
N#Cc1c(NC(=O)COC(=O)C2CC3C=CC2C3)oc(-c2ccccc2)c1-c1ccccc1 (stereo not given)	-0.8	·
CCCCCCc1nc(SCN2C(=O)c3ccccc3C2=O)c2c(=O)n(C)c(=O)n(CCC)c2n1	0.3	·

Molecules from the list above with two or more sulfur atoms:
SMILES	Ab BasE inh	KSHV LANA nucl
CCC(=O)N=C1SC2CS(=O)(=O)CC2N1CCc1ccccc1 (stereo not given)	0.6	-1.4
Cn1cnnc1Sc1cc(C#N)c(C#N)cc1Sc1nncn1C	-1.4	·
S=C(NC1CCCCC1)C(=S)NC1CCCCC1	4.2	·

The listing picks up, repeating the 6 entries before the break.
SMILES	Ab BasE inh	KSHV LANA nucl
O=C(COc1ncnc2sccc12)c1ccc2c(c1)OCCO2	-5.1	·
C=CCSC1=C(C#N)C(c2ccccc2OC)C(C#N)C(=O)N1 (stereo not given)	0.1	0.36
Nn1c(Cc2cccc3ccccc23)nnc1SCC(=O)N1CCCC1=O	2.7	·
C[S+](C)c1ccccc1	-1.2	0.15
N#Cc1c(NC(=O)COC(=O)C2CC3C=CC2C3)oc(-c2ccccc2)c1-c1ccccc1 (stereo not given)	-0.8	·
CCCCCCc1nc(SCN2C(=O)c3ccccc3C2=O)c2c(=O)n(C)c(=O)n(CCC)c2n1	0.3	·
O=c1c2c3nc4ccccc4nc3n(-c3cccc(Br)c3)c2ncn1CC1CCCO1 (stereo not given)	-0.3	-0.71
COC(=O)c1ccccc1NC(=O)Cc1coc2c(C)c(C)ccc12	0.8	0.22
COc1ccccc1-c1nnc(NC(=O)c2ccccc2S(C)(=O)=O)o1	-0.6	-0.29
CCOc1ccc(CCNC(=O)C2CCN(S(=O)(=O)c3cccc4nonc34)CC2)cc1OCC	-0.2	-1.2
CC(=O)N1N=C(c2ccccc2)OC1(C)CC(=O)Nc1ccccc1 (stereo not given)	2.5	·
O=C(Nc1ccccc1N1CCCCC1)c1sc2ccccc2c1Cl	·	-0.65
CC1(C)CC2CC(C)(CN2C(=O)COC(=O)c2ccc3c(c2)OCCO3)C1 (stereo not given)	1.6	·
C(=C\c1ccccc1)/C=N/Nc1nc2ccccc2[nH]1	6.7	·
C=CCOc1ccc(CN(C)CC(O)COc2ccccc2C(C)C)cc1 (stereo not given)	-1.0	·
CSc1sc(C(=O)/C=C/N(C)C)c(-c2cccs2)c1C#N	2.6	1.1
Cc1csc(=O)n1CCC(=O)OCC(=O)c1ccc(S(=O)(=O)N2CCCCC2)cc1	-0.9	·
O=C1C(Cc2ccccc2)N=C(N2CCN(c3ccc(Cl)cc3)CC2)N1c1ccccc1 (stereo not given)	1.7	0.45
CCn1c(SCC(N)=O)nc2ccccc21	0.9	-0.29
Cc1cc(C(=O)NN)c2cc(Br)ccc2n1	-1.1	·
CN(C)C(=O)C1CC(=O)N(c2ccc(Cl)cc2)C1 (stereo not given)	1.0	-0.13
O=S(=O)(NN=Cc1cn(-c2ccccc2)nc1-c1ccco1)c1ccc(Cl)cc1	-5.0	1.9
CCOc1ccc2[nH]c(=S)[nH]c2c1	1.9	·
COc1ccc(CNC(=O)C2CC(=O)N=C(N)S2)cc1 (stereo not given)	-0.7	·
CCCCN(C(=S)Nc1cccc(C)c1)c1c(N)n(CCC)c(=O)[nH]c1=O	0.7	·
COc1ccc(C(=O)CSc2nc3c([nH]2)c(=O)n(C)c(=O)n3C)cc1	-1.0	·
COc1ccccc1Oc1c(F)c(F)nc(N2CCCCC2)c1F	-1.8	1.6
COc1ccc(CCN(Cc2nc3ccccc3c(=O)[nH]2)C(=O)C(C)C)cc1	2.3	0.43
Cc1cc(C2=NNC(=NCC3CCCO3)SC2)c(C)n1-c1c(C)n(C)n(-c2ccccc2)c1=O (stereo not given)	-1.7	·
Cc1ccc(S(=O)(=O)NC(=O)NC(C)C2CC3CCC2C3)cc1 (stereo not given)	0.2	·
COC(=O)c1ccccc1NC(=O)CNCCc1ccc(OC)c(OC)c1	1.1	·
Additional structures follow.
SMILES	Ab BasE inh	KSHV LANA nucl
CCC(CC)C(=O)Nc1cccc(I)c1	21	0.36
C=CCN=c1scc(-c2ccco2)n1/N=C/C1=CCC2CC1C2(C)C (stereo not given)	1.1	·
COC(CNC(=O)c1ccc(/C=C2\Oc3ccccc3NC2=O)cc1)OC	-0.2	0.78
Cc1nnc(SCc2ccccc2)[nH]c1=O	-0.4	·
CN(Cc1ccccc1)c1nnc(NC(=O)NC2CCCC2)s1	0.4	0.31
CCCn1c(=O)n(C)c(=O)c2c(SCc3cccc(S(=O)(=O)N(C)C)c3)nc(C(C)C)nc21	-0.2	·
O=C(CN1CCN(S(=O)(=O)Cc2ccccc2)CC1)Nc1ccc2[nH]c(=O)[nH]c2c1	-1.8	·
COC(C(=O)NCc1ccc2c(c1)OCO2)c1ccccc1 (stereo not given)	-0.7	-1.5
CC(=O)N1CCN(CC(=O)Nc2ccc(S(=O)(=O)N(C)C)cc2)CC1	-2.6	·
NC(C(=O)O)C(C(F)(F)F)C(F)(F)F (stereo not given)	9.0	-0.23
Cc1ccc(C)c(N2CCN(C(=O)CN(C)S(=O)(=O)c3ccc4[nH]c(=O)oc4c3)CC2)c1	0.3	0.64
Cc1ccc(C2=N/C(=C\N3CCCCC3)C(=O)O2)cc1	2.3	-1.4
CS(=O)(=O)Nc1ccc(C(=O)NCc2ccccc2)cc1	1.1	-0.54
COc1ccc2c(c1)CCC/C2=N/NC(=O)c1ccoc1C	1.2	0.42
O=C(O)c1nc(Cl)c(Cl)c(Cl)c1Cl	1.7	0.73
Nc1ccccc1NC1=CC(=O)CC(c2c(F)cccc2Cl)C1 (stereo not given)	·	-0.12
Cc1c(C(=O)Nc2ccccn2)oc2ccccc12	-6.5	2.7
COC(=O)[C@@H](NC(=O)c1ccc(Cl)cc1Cl)C(C)C	1.2	·
CC1=C(C(N)=O)C(c2ccccc2)NC(=S)N1 (stereo not given)	-1.2	0.43
CC(C(=O)NC1=NCCS1)(C(F)(F)F)C(F)(F)F	-1.2	-0.29
COC(=O)C1=C(CN2CCCCC2)NC(=O)NC1c1ccccc1C (stereo not given)	0.3	0.044
CCOc1cc(/C=N\NC(=O)OC)ccc1OC(=O)c1ccco1	-0.2	0.067
COC(=O)c1c(NC(C)=O)c2c(C)c(C)sc2n1Cc1cccc(C)c1	5.3	0.32
Cc1cc(=O)oc2cc(OCC(O)CNC3CC3)ccc12 (stereo not given)	-1.2	·
CC1CCC(Nc2nnnn2-c2ccccc2)CC1 (stereo not given)	-1.8	-0.66
Carrying on.
SMILES	Ab BasE inh	KSHV LANA nucl
CC1(C)C(c2ccccc2)=[N+]([O-])C2(CCCCC2=NNC(N)=O)N1O (stereo not given)	3.7	·
COc1cc(CN(C)Cc2cc(=O)n3ccsc3n2)ccc1OC(F)F	-2.1	·
O=C(CCCN1CCC(O)(c2ccc(Cl)cc2)CC1)c1ccc(F)cc1	-5.5&3.2	0.32&-0.49&0.2&-0.47&0.08
CC(C)=N/N=C1\NC(=O)C(Cc2ccccc2)S1 (stereo not given)	1.1	0.78
CC(C)NS(=O)(=O)c1ccc2nc(NC(=O)c3cccnc3)sc2c1	3.2	-0.3
NNC(=O)CNC(=O)c1ccco1	-0.5	0.032
COc1cccc(/C=N/NC(=O)c2ccccc2O)c1	2.2	-0.44
S=C(NCCCN1CCOCC1)N(Cc1ccccc1)Cc1ccccc1	3.5	·
CCC(c1nc2ccccc2c(=O)n1-c1ccccn1)N1C(=O)c2ccccc2C1=O (stereo not given)	0.1	0.067
N#CCC(=O)Nc1ccc(C(=O)OCC(=O)c2cc3ccccc3o2)cc1	-36	·
C(=N\N1CCOCC1)/c1nc(-c2ccccc2)n2ccccc12	3.8	·
COc1ccc(CC(=O)O/N=C(\N)c2ccccc2)cc1	-0.9	-1.1
CCN(CC(=O)Nc1ccc(NC(C)=O)cc1)CC(=O)Nc1ccc(S(=O)(=O)N(C)C)cc1	1.3	·
Cc1csc(Nc2nc(N)c(C(=O)Nc3ccccc3)o2)n1	0.7	0.18
CCOC(=O)NNc1nc2ccccc2n1Cc1ccccc1	-2.2	-0.42
C=CCn1cnc2c(c1=O)c1nc3ccccc3nc1n2-c1cccc(C)c1	-2.1	-1.3
CCN(CC)S(=O)(=O)c1ccc(/C=C/C(=O)N(c2ccccn2)C2CCCCC2)cc1	-0.6	·
N#C/C(=C/c1ccc(-c2cccc(C(F)(F)F)c2)o1)C(=O)N1CCOCC1	0.4	-0.44
CCC(O)c1nc2ccccc2n1CC (stereo not given)	-3.7	-1
COc1ccc(CNC(=O)c2cccs2)cc1	0.3	0.41
Cc1nc2cc(-c3ccc(Br)cc3)[nH]n2c(=O)c1Cl	1.5	-1
O=C(C1CCCN(Cc2cccc(Cl)c2)C1)N1CCCCCC1 (stereo not given)	-0.6	·
CN(C)S(=O)(=O)c1cccc(C(=O)Nc2ccccc2)c1	-2.7	2
Cc1[nH]c(=S)n(CC(C)C)c1C	1.8	·
O=C(Nc1ccc2c(c1)Cc1ccccc1-2)c1ccc(Br)o1	-0.4	0.78

Pulled by structure from the list above (two):
SMILES	Ab BasE inh	KSHV LANA nucl
COc1ccc(CC(=O)O/N=C(\N)c2ccccc2)cc1	-0.9	-1.1
CCN(CC)S(=O)(=O)c1ccc(/C=C/C(=O)N(c2ccccn2)C2CCCCC2)cc1	-0.6	·

Additional compounds:
SMILES	Ab BasE inh	KSHV LANA nucl
CC(C)c1ccc(Cn2cnc3ccccc32)cc1	7.3	·
O=C(c1ccco1)N1CCN(C(=O)c2cccc3c2C(=O)N(Cc2cccnc2)C3)CC1	1.1	0.18
CC(C)(C)C(=O)CSc1nnc2sc3ccccc3n12	2.2	·
COC(=O)c1ccc(-c2ccco2)n1CC(=O)N1CCc2ccccc2C1	2.9	0.69
CC1=CC(=O)OC(c2ccccc2)C1 (stereo not given)	2.8	·
CCn1c(C)nc2cc(-c3nnc(Nc4ccccc4)o3)ccc21	-3.2	·
O=C(O)c1ccc2c(c1)CCC2	1.7	-0.35
O=C1c2ccccc2C(=O)c2c1oc1c3c(ccc21)OCN(CCCn1ccnc1)C3	9.4	·
CC(C)c1nc(N2CCN(C(=S)NC3CCCCC3)CC2)c(C#N)c2c1CCCC2	5.7	·
Cc1nc2c3ccccc3n(Cc3ccccc3)c2s1	4.3	-0.39
Cc1nc(SCCNCCO)c2c3c(sc2n1)CCC3	0.1	·
CC(C)C(Nc1ncnc2ccc(Br)cc12)C(=O)O (stereo not given)	1.3	-0.67
Cc1ccc(CNC(=O)c2cnc3ccccn3c2=O)cc1	-2.2	2.4
O=C(Nc1ccc(NC(=O)C2CC23CCC3)cc1)C1CC12CCC2 (stereo not given)	2.1	0.086
COc1cc2c3nc4n(c(=O)c3n(CC(=O)NCc3ccco3)c2cc1OC)CCS4	1.1	0.043
O=C(CC1CCCCC1)Nc1ccc(F)cc1	0.2	-0.66
CC(C)NC(=O)CSCc1c(Cl)cccc1Cl	3.8	·
Nn1c(Cc2ccccc2F)nnc1SCc1cc(=O)oc2cc(O)c(O)cc12	3.2	·
CC(=O)OC1CC(C(=O)O)N(S(=O)(=O)c2ccc(F)cc2)C1 (stereo not given)	0.9	·
O=C(O)COCC(=O)Nc1ccc(OC(F)F)cc1	-0.3	0.38
COc1ccc(F)cc1S(=O)(=O)Nc1ccc2c(c1)oc1ccc(S(=O)(=O)N3CCCC3)cc12	0.1	0.87

Quoted from the listing.
N#C/C(=C/c1ccc(-c2cccc(C(F)(F)F)c2)o1)C(=O)N1CCOCC1 in Ab BasE inh is entered as 0.4
O=C(Nc1ccccc1N1CCCCC1)c1sc2ccccc2c1Cl in KSHV LANA nucl is entered as -0.65
CSc1ccc(-c2ccc(C(=O)O)c(Cl)n2)cc1 in KSHV LANA nucl is entered as -0.07

Screens (PubChem)

The list is partial; the hit share may differ from the screen's.
